Screening data from PubChem.
RE007 growth inh: less growth of the S. pombe RE007 Vpr strain; 360,000 tested, 0.21% active; S. pombe RE007 Vpr strain, BacTiter-Glo ATP luminescence, 24 h; control for the full effect not named in the record; Potency, µM (highest dose often 92.2 µM), without a hit: at the top dose activity change, negative = less growth; active = well fitted falling curve with a large enough effect; inconclusive = small, poorly fitted or top-dose-only effect; inactive = no such curve, though single readings can be large or run the other way;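 also: % is scaled to controls: 0 for no effect and ±100 for the full control effect; nearly all actives have a fitted effect of over 50% in size; the assay follows cell death caused by Vpr and the record does not say whether a fall means rescue or toxicity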
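Fission yeast RE007 carrying one integrated HIV-1 vpr copy, seeded at OD 0.01 in PMG+AL medium with 23 nL pinned compound. Grown 24 h at 30 degrees; viability read by BacTiter-Glo luminescence after 5 min.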
Cruzain inh Det: cruzain (T. cruzi) inhibition with detergent; P25779; purified cruzain, Z-FR-AMC fluorescence, 0.01% Triton; Potency, µM, inactives show max response, negative = inhibition, usual class: inhibitors; 200,000 tested, 0.43% active; AID 1478;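 also: plate controls were neutral wells for no effect and buffer without enzyme for full effect; nearly all actives have a fitted effect of over 40% in size; top concentration of the series not given in the record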
Target sequence (P25779 123-467 limits assumed): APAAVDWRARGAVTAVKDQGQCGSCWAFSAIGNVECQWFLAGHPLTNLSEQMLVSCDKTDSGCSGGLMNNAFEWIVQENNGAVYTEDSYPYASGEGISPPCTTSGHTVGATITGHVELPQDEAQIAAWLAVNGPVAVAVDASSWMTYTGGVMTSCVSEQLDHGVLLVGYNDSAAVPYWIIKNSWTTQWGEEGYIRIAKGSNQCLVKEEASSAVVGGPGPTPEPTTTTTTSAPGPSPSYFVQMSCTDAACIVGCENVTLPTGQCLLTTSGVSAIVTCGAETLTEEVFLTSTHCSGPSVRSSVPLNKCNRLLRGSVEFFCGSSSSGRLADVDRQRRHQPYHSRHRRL
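Enzyme 1.5 nM, Z-FR-AMC 2 uM, NaOAc 100 mM pH 5.5, DTT 5 mM, Triton X-100 0.01%; 15 min RT compound preincubation; kinetic ex360/em450, 60 s delta.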
Cruzain inh noDet: blocks cruzain activity in detergent-free assay. 200,000 tested, 2.3% active. Potency, µM, inactives show max response, negative = inhibition, most hits filed as inhibitors. purified cruzain, Z-FR-AMC fluorescence, no detergent. P25779. AID 1476;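 also: plate controls were enzyme without inhibitor for no effect and buffer without enzyme for full effect; nearly all actives have a fitted effect of over 40% in size; top concentration of the series not given in the record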
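Detergent-free condition (0.00005% Triton X-100) in acetate buffer pH 5.5 with DTT. 1.5 nM enzyme and compound were pre-mixed 15 min, then 2 uM Z-FR-AMC substrate added; reaction progress from fluorescence change between first and third reads (60 s).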
MARV entry inh: Marburg virus entry inhibition | Potency, µM (series often up to 37.8 µM), for the others: at the highest dose activity change, negative = inhibition, most hits filed as inhibitors | 300,000 tested, 1.8% active | Marburg virus pseudotyped entry inhibition, cell reporter; control for the full effect not named in the record; about a third of the inactives were read at about 46 µM; active = well fitted inhibition curve with a large enough effect; inconclusive = small, poorly fitted or top-dose-only effect, or effect the other way; inactive = flat fitted curve, though single readings scatter; tested in HEK293 cells; about a fifth of its hits are not listed in these tables; also: % is scaled to controls: 0 for no effect and ±100 for the full control effect; luciferase read-out
2A StopGo: FMDV 2A StopGo reporter, luciferase signal; human cells with a luciferase reporter of 2A StopGo recoding; control for the full effect not named in the record; AID 1159524; Potency, µM (doses to about 57.9 µM), inactives show at the top dose signal change, negative = less light; 410,000 tested, 1.2% active; active = well fitted falling curve with a large enough effect; inconclusive = small, poorly fitted or top-dose-only effect; inactive = no such curve, though single readings can be large or run the other way; tested in HEK293T cells; also: % is scaled to controls: 0 for no effect and ±100 for the full control effect; nearly all actives have a fitted effect of over 45% in size; luciferase light after 4 h
NS1 function inh: inhibitors of influenza NS1 protein function | Potency, µM (doses to about 46.1 µM), without a hit: at the highest dose activity, positive = more growth | 270,000 tested, 0.4% active | S. cerevisiae slowed by influenza A NS1, growth recovery by OD600; active means well fitted rising curve with a large enough effect; inconclusive means small, poorly fitted or top-dose-only effect; inactive means no such curve, though single readings can be large or run the other way; also: nearly all actives have a fitted effect of over 50% in size
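OD600 was taken as the measure of yeast growth restored by compound in an NS1-expressing S. cerevisiae strain. Cells had been washed out of glucose medium and diluted 1:100 into galactose -URA medium, pH 6.0.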
LASV entry inh: blocks Lassa virus binding to or entry into cells; 300,000 tested, 1.2% active; Lassa virus pseudotype entry inhibition, cell reporter; control for the full effect not named in the record; Potency, µM (top dose mostly 37.9 µM), for the others: at the highest dose activity change, negative = inhibition, actives largely listed as inhibitors; active means well fitted inhibition curve with a large enough effect; inconclusive means small, poorly fitted or top-dose-only effect, or effect the other way; inactive means flat fitted curve, though single readings scatter; tested in HEK293 cells; also: % is scaled to controls: 0 for no effect and ±100 for the full control effect; nearly all actives have a fitted effect of over 50% in size; luciferase read-out
SARS PLP yeast: inhibitors of SARS-CoV papain-like protease in yeast; S. cerevisiae expressing SARS-CoV PLpro, growth rescue; control for the full effect not named in the record; Potency, µM (doses to about 32.9 µM), without a hit: at the top dose activity, positive = growth rescue; 330,000 tested, 0.19% active; AID 485353; active means well fitted rising curve with a large enough effect; inconclusive means small, poorly fitted or top-dose-only effect; inactive means no such curve, though single readings can be large or run the other way; also: 0% is about no effect; nearly all actives have a fitted effect of over 55% in size; growth read by luminescence after 48 h
Numbers without * were called inactive; ? = inconclusive; / = not tested or not shown; & = joins results of further samples; [ ] = remark or other dose. Unless noted, calls follow the shape of the dose curve; as a rule, active = well fitted curve in the direction sought with a large enough effect; inconclusive = small, poorly fitted or top-dose-only effect, or another doubt; inactive = no such curve, though single readings can be large; an effect the other way counts as inactive or inconclusive. Potency is read from the fitted curve at half-maximal effect.

SMILES	RE007 growth inh	Cruzain inh Det	Cruzain inh noDet	MARV entry inh	2A StopGo	NS1 function inh	LASV entry inh	SARS PLP yeast
CCN(CC)c1cc(C)c2cc(NC(=O)/C=C/c3cc(OC)c(OC)c(OC)c3)ccc2n1	/	-23%	3%	?	-23%	/	?	/
CCc1ccc2oc(-c3cc(NC(=O)C(C)C)cc(C)c3O)nc2c1	/	0.1%	-4%	?	7%	/	-5%[46.1 µM]	/
c1ccc(-c2nc(-c3ccncc3)n[nH]2)nc1	-24%	/	/	-16%	34%[activator]	-3%	?	-2%
O=C(Nc1ccc(CN2CCS(=O)(=O)CC2)cc1)c1ccccc1	5%	/	/	/	-6%	-3%	/	0%
COc1ccc(NC(=S)NC2CCCCC2)cn1	17%	/	/	1%[46.1 µM]	68%[activator]	/	-12%	4%
Cc1ccc(S(=O)(=O)N2CCN(C(=O)c3ccc4c(c3)OCO4)CC2)cc1	88%	/	/	-2%[46.1 µM]	-24%	5%	-11%	2%
CCOC(=O)C1CCN(c2ncnc3c2oc2ccc(Cl)cc23)CC1	-6%	-19%	24%	0%	-12%	-96%	?	-26%
O=P1(Nc2cccnc2)COc2ccccc2OC1	-15%	-1.4%	8%	9%	-6%	-9%	-1%	-1%
COC(=O)c1cc(NC(=S)N2CCN(c3ccccn3)CC2)cc(C(=O)OC)c1	-5%	/	/	?	37%[activator]	-4%	0%[46.1 µM]	0%
CCOC(=O)C1=C(CNCCc2ccc(Cl)cc2)NC(=O)NC1c1ccc2c(c1)OCO2 (stereo not given)	8%	-1.4%	?	?	-11%	?	?	-2%
Oc1ccc(/C(Cc2ccccn2)=N\Nc2ccccc2)c(O)c1	22%	/	/	8.9µM*	?	/	?	-13%
CCOc1ccc(CCNC(=O)C2CCN(C(=O)N3CC(CC)Oc4ccc(C)cc43)CC2)cc1 (stereo not given)	/	-6.0%	10%	/	28µM*	/	-17%[46.1 µM]	/
O=C(COc1ccc([N+](=O)[O-])cc1Cl)NCCc1ccccc1	/	-3.9%	-8%	23%	-1%	2%	8%	-1%
N#Cc1cccc(NC(=O)CC2CCCCC2)c1	13%	-3.7%	-6%	29%	65%[activator]	-10%	15%	-2%
CCc1ccccc1NC(=O)CN(c1ccc(OC)cc1)S(=O)(=O)c1c(C)n[nH]c1C	/	-3.9%	-4%	?	-11%	/	?	/
Cc1cccc2cc3c(N)c(C(=O)N4CCCc5ccccc54)sc3nc12	-17%	-7.4%	?	?	?	?	2.8µM*	-29%
CC1CCCC(NS(=O)(=O)c2cc3c(cc2Cl)NC(=O)CO3)C1C (stereo not given)	18%	/	/	/	11%	7%	/	0%
N#CCCN(C(=O)COC(=O)CCc1nc2ccccc2c(=O)[nH]1)c1ccc(F)cc1	5%	/	/	-28%	-14%	/	18%	-5%
NS(=O)(=O)c1ccc(CCNC(=O)C(=O)c2cn(CC(=O)N3CCOCC3)c3ccccc23)cc1	6%	/	/	/	6%	12%	/	9%
Cc1ccc(NC(=O)CS(=O)CC(=O)N(c2ccc(C)cc2)C(C)C(=O)NC2CCCCC2)cc1 (stereo not given)	-3%	-3.6%	?	?	25%	-3%	?	14%
CC1CCN(S(=O)(=O)c2cn(CC(=O)Nc3ccc(F)cc3)c(=O)c3ccccc23)CC1	/	-3.9%	-14%	5.6µM*	9%	/	?	/
Cc1ccc(Cl)cc1N1CCN(C(=O)C2CCN(S(=O)(=O)c3cccnc3)CC2)CC1	20%	-2.5%	?	?	16µM*	3%	?	-1%
CN1C(=O)CC(C(=O)O)SC1=Nc1cc(Cl)c(O)c(Cl)c1 (stereo not given)	-13%[3.69 µM]	1.0%	1%	2%	8%	8%	6%	-3%
O=C(CNC(=O)c1ccc(Br)o1)NNC(=O)c1ccccc1	3%	/	/	?	-5%	/	0%	0%
CC(=O)c1cccc(NC(=S)NCCc2ccc(Cl)cc2)c1	13%	/	/	?	-20%	-6%	10%	-1%
Cc1ccc([N+](=O)[O-])cc1S(=O)(=O)Nc1cccc(S(=O)(=O)NC2=NCCC2)c1	-3%	/	/	-4%	39%[activator]	/	17%	-18%
Cc1cc(C)[n+](C)n1CC(O)Cn1c2ccccc2c2ccccc21 (stereo not given)	-17%	/	/	10%[46.1 µM]	-6%	/	3%	-4%
Cc1ccc(CC2(c3ccccc3)NC(=O)NC2=O)cc1 (stereo not given)	0%	/	/	?	-17%	/	-3%[46.1 µM]	/
CCCCn1c(N)c(N(CCOC)C(=O)c2ccc(-c3ccc([N+](=O)[O-])cc3)o2)c(=O)[nH]c1=O	-11%	/	/	20%	-10%	11%	3%	-4%
Cc1cc(/C=N\NC(=O)COc2cccc3cccnc23)c(C)n1-c1ccc(Br)cc1	-5%	0.1%	?	-44%	-19%	15%	-12%	-14%
Cn1nc(C(C)(C)C)cc1C(=O)NNC(=O)c1ccc(C(F)(F)F)cc1	-7%	/	/	/	?	0%	/	-4%
Cc1c2c(nc3ccccc13)CCC(C(C)(C)C)C2 (stereo not given)	-29%	/	/	-14%[46.1 µM]	0%	/	14%	-3%
Cc1ccc(-c2nc(CS(=O)(=O)CC(=O)NCc3ccc(Cl)cc3)c(C)o2)cc1	/	-0.9%	1%	-3%[46.1 µM]	-12%	/	13%[46.1 µM]	/
O=C(O)c1ccc(N/N=C/c2ccc(-c3ccc(Br)cc3)o2)cc1	?	/	/	?	2%	-6%	?	-1%
O=c1cc(-c2cccc(Br)c2)nc(-c2ccccc2F)o1	-20%	8.9µM*	10µM*	16%	-1%	12%	4%	-5%
CCOc1ccc(NC(=O)CC2C(=O)N(c3ccc(Cl)cc3)C(=O)N2Cc2cccs2)cc1 (stereo not given)	/	-4.5%	-18%	/	-4%	/	-8%[46.1 µM]	/
Cc1c(C(=O)N2CCCCC2C)sc2ncnc(N3CCc4ccccc4C3)c12 (stereo not given)	4%	/	/	?	?	/	?	-9%
C=C(C)Cn1c(=S)[nH]c2ccccc2c1=O	7%	2.6%	2%	21%	0%	-8%	5%	/
CC(=O)c1ccc(OCCCC(=O)Nc2ccc(C)c(S(=O)(=O)N(C)C)c2)cc1	-6%	-2.0%	3%	?	0%	-22%	4%	16%
O=C(CNS(=O)(=O)c1ccccc1)N/N=C/c1ccccc1[N+](=O)[O-]	-2%	/	/	1%[46.1 µM]	-11%	4%	-8%[46.1 µM]	1%
CSc1cccc(NC(=S)N(CCC(C)C)C(C)c2ccncc2)c1 (stereo not given)	6%	/	/	/	6%	-49%	/	-1%
CONC(=O)c1cc(OCC(F)(F)F)ccc1OCC(F)(F)F	-11%	4.6%	-8%	20%	21%	6%	15%	1%
O=C(Nc1ccsc1C(=O)O)c1cccc(Oc2ccccc2)c1	4%	/	/	?	-73%	-7%	?	-6%
CC1(C)Cc2c(C#N)c(OCC(=O)c3ccc(Cl)cc3)nc(-c3ccco3)c2CO1	37%	-5.5%	?	16%	?	-16%	9%	-4%
Cn1c(COc2ccccc2)nnc1SCC(=O)Nc1nnc(C2CC2)s1	1%	/	/	0%[46.1 µM]	-7%	/	21%	/
CC(Nc1ccc(-c2nc(-c3ccco3)no2)cc1[N+](=O)[O-])c1ccccc1 (stereo not given)	/	-13%	1%	-5%[46.1 µM]	-1%	/	?	/
Cc1ccc(S(=O)(=O)N2CCC(C(=O)Nc3ccc4c(c3)OCO4)CC2)cc1	-16%[3.69 µM]	-1.7%	14%	-8%	0%	15%	-2%	1%
CCOc1ccccc1C(=O)NC1CCNCC1	2%	/	/	/	-4%	13%	/	0%
Cc1cc(C)nc(Nc2cccc3ccccc23)n1	-10%	/	/	/	-1%	-7%	/	-1%
O=C(NCc1cccnc1)C(Cl)(Cl)Cl	2%	-2.0%	-13%	?	0%	1%	-1%	-16%
Cc1ccc(S(=O)(=O)/N=C(/c2ccc(F)cc2)N(C)C)cc1	2%	/	/	8%[46.1 µM]	-6%	-1%	9%[46.1 µM]	3%
O=c1ccc2ccc(OCc3nnc(-c4ccccc4Br)o3)cc2o1	22%	1.8%	4%	-9%	0%	0%	6%	0%
Cc1cc(C)n(-c2nc(-n3nc(C)cc3C)c3c4c(sc3n2)COC(C)(C)C4)n1	/	2.9%	5%	-5%	/	-8%	/	-14%
CC(C)CNC(=O)NC(=O)COC(=O)c1cccc(NS(=O)(=O)c2ccc(F)c(F)c2)c1	-19%	-11%	4%	-22%	-1%	7%	-19%	19%
COc1ccc(CNC(=O)CN2C(=O)COc3ccc(S(=O)(=O)N4CCC(C)CC4)cc32)cc1	10%	-4.0%	-5%	/	-7%&5%	10%	13%[46.1 µM]	0%
COc1ccccc1-n1c(SCC(=O)OC(C)C)nc2cccnc21	0%	/	/	/	-2%	-31%	/	-2%
Cc1ccc(NC(=O)CSc2nnc(-c3ccccn3)n2N)cc1F	14%	/	/	-6%	-10%	-1%	14%	0%
Cc1cccc(CC(=O)N2CC(=O)Nc3ccc(C)cc3C2c2ccc(F)cc2)c1 (stereo not given)	/	-5.7%	-4%	?	-16%	/	?	/
CN(C(=O)COC(=O)c1cc([N+](=O)[O-])ccc1Sc1ccccc1)C1CCS(=O)(=O)C1 (stereo not given)	-13%	/	/	?	-14%	/	6%	0%
CCOC(=O)c1sc(NC(=O)C(CC)Sc2nnc3c4ccccc4n(CC)c3n2)nc1C (stereo not given)	17%	/	/	/	16%	1%&-2%	/	0%

(next part)
SMILES	RE007 growth inh	Cruzain inh Det	Cruzain inh noDet	MARV entry inh	2A StopGo	NS1 function inh	LASV entry inh	SARS PLP yeast
CCOC(=O)NC(=O)/C(C#N)=C(/C)N(C)C	-25%	/	/	-7%[46.1 µM]	1%	/	9%[46.1 µM]	0%
CNC(=S)N/N=C/c1c(C(=O)OC)cnn1-c1ccc(F)cc1F	-4%	/	/	-20%[46.1 µM]	?	1%	-2%	0%
O=C(CSc1ccc(F)cc1)Nc1ccc2c(c1)C(=O)NC2=O	-21%	/	/	/	-7%	1.6µM*	/	5%
COc1cccc(-c2cc(C(=O)NC3CCCC3)no2)c1	-8%	-7.0%	-5%	2%	48%[activator]	-24%	/	-1%
